High-throughput results deposited in PubChem BioAssay by National Center for Advancing Translational Sciences (NCATS).
ClpP mod – qHTS Assay for Activators of ClpP | Potency, µM (doses to about 57.5 µM), without a hit: at the top dose activity change, negative = active | ATP-dependent Clp protease proteolytic subunit (Bacillus subtilis (strain 168)), P80244 | actives 1.9% (n = 340,000) | AID 651965, 2013 | purified B. subtilis ClpP, FRET peptide cleavage, 20 min; active = well fitted falling curve with a large enough effect; inconclusive = small, poorly fitted or top-dose-only effect; inactive = no such curve, though single readings can be large or run the other way; further: the source files actives as falling curves though it sought activators and does not explain the sign; nearly all actives have a fitted effect of over 65% in size; many hits overshoot -100%
Target sequence (P80244 whole entry, looked up): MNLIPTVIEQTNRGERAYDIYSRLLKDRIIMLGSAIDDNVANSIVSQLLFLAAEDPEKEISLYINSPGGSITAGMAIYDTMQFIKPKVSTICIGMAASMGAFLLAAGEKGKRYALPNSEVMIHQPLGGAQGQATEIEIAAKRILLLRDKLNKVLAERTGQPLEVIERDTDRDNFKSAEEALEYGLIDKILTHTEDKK
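ClpP 10 microg/mL final, pH 8 Tris/KCl buffer with BSA, glycerol, Tween-20; compound pinned in; FRET-FV substrate; RT 20 min; Ex320/Em430; ΔFRET vs ADEP 5.8 microM, DMSO, no enzyme.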
The depositor's hits bear a star; ? = inconclusive. Potency means the concentration at half of the fitted maximal effect.

SMILES | ClpP mod
O=c1c2ccccc2nc(-c2ccc(Cl)cc2)n1CCCCOc1ccc(F)cc1 | -5.2%
COc1ccccc1CNC(=O)C(=O)NCC(c1ccco1)S(=O)(=O)c1ccc(F)cc1 (stereo unspecified) | 0.8%
CC(=O)Nc1ccc(Nc2nc3ccc(C)cc3n3nnnc23)cc1 | 8.0%
O=C(c1cccc([N+](=O)[O-])c1)N1c2nc(-c3ccco3)nn2C2(CCCCC2)[C@@H]2CCCC[C@@H]21 | -0.5%
CCn1c(=O)n(CC)c2cc(N3CCCC3)c(NC(=O)Nc3cc(C)cc(C)c3)cc21 | ?
Cc1ccc2nc(-c3ccsc3)c(Nc3ccc(C(C)C)cc3)n2c1 | -19%
COc1cccc(CNC(=O)CN(c2ccc(C)cc2)S(=O)(=O)N(C)C)c1OC | 3.4%
O=C(Nc1ccc(Br)cc1)c1ccc(Br)c(S(=O)(=O)N2CCCCC2)c1 | 5.2%
CCOc1ccccc1CNC(=O)Nc1cn(CC(C)C)c(=O)c2ccccc12 | 3.8%
Cc1ccc(Cl)cc1N1CCN(C(=O)c2ccc(CS(=O)(=O)c3ccc(Br)cc3)o2)CC1 | -5.1%
CCc1ccc(-c2nc3c(c(SCc4ccccc4F)n2)Cc2c(CO)cnc(C)c2O3)cc1 | -2.8%
COC(=O)c1cccc(CN2C(=O)SC(Nc3ccccc3C)C2=O)c1 (stereo unspecified) | 0.4%
Cc1ccc(CCNC(=O)c2ccc3nc(N4CCC(C)CC4)sc3c2)cc1 | -3.1%
O=C(C1CCN(S(=O)(=O)c2cccc3nonc23)CC1)N1CCN(c2cccc(Cl)c2)CC1 | 1.0%
CCOc1ccc(C(=O)c2oc3ccccc3c2NC(=O)c2cc(-c3ccccc3)on2)cc1 | -26%
O=C(NCc1ccc(Cl)cc1)C1(c2cccs2)CCOCC1 | 0.9%
O=C(NCc1ccccc1)C(=O)NCC(c1ccco1)S(=O)(=O)c1ccc(Cl)cc1 (stereo unspecified) | 1.3%
Cc1ccc(C)c(CN2C(=O)N(c3cc(Cl)ccc3C)S(=O)(=O)c3ccccc32)c1 | -0.8%
COc1cccc(N2CC(NC(=O)c3cccs3)CC2=O)c1 (stereo unspecified) | -0.9%
CC(C)Cn1c(SCc2cccc(F)c2)nc2ccsc2c1=O | -3.5%
Cc1ccc(/C=C(\C#N)C(=O)Nc2cccc(Br)c2)o1 | 26%
CCOc1ccc(CCNC(=O)CSCc2nc(-c3cccc(C)c3)oc2C)cc1OCC | -0.9%
CC1(C)Cc2ccccc2-c2c[nH]c(=O)n21 | -8.9%
CC(C)c1ccc(NC(=O)c2ccc(Cn3nc(N4CCN(c5ccccc5)CC4)ccc3=O)o2)cc1 | -17%
CN(C)c1ccc(/C=C/c2ccnc3c([N+](=O)[O-])cccc23)cc1 | 3.2%

Three compounds picked at random from the list so far, as already listed:
SMILES | ClpP mod
Cc1ccc(/C=C(\C#N)C(=O)Nc2cccc(Br)c2)o1 | 26%
CC(=O)Nc1ccc(Nc2nc3ccc(C)cc3n3nnnc23)cc1 | 8.0%
CN(C)c1ccc(/C=C/c2ccnc3c([N+](=O)[O-])cccc23)cc1 | 3.2%

Following part:
SMILES | ClpP mod
CC1CCN(S(=O)(=O)c2ccc3c(c2)N(CC(=O)NC(C)C)C(=O)CO3)CC1 | -2.0%
CC1=Nc2cc(C(=O)NC3CCCC3)ccc2Sc2ccc(Cl)cc21 | 0.3%
Cc1ccc(CNC(=O)C2CCN(Cc3nc(-c4cccc(Br)c4)oc3C)CC2)cc1 | -1.1%
Clc1ccc2c(Cl)cc[n+](CCC3CCCCC3)c2c1 | -5.7%
Cc1ccc(NC(=O)CN2C(=O)CSc3ccc(S(=O)(=O)N4CCCC4)cc32)cc1F | 1.3%
CSc1ccc(CCNC(=O)c2ccc3c(c2)c(C)c(C)n3Cc2ccc(F)cc2)cc1 | ?
COc1ccccc1CNC(=O)CCCCn1c(=O)c2ccccc2n(Cc2ccccc2C)c1=O | -7.1%
Brc1ccc(CN2CCc3nc(Nc4ccccc4)ncc3C2)s1 | -11%
COc1ccc(C(=O)Oc2c(Sc3ccccc3)c(C)nn2-c2ccccc2)c(OC)c1 | -3.0%
CC(C)(C)c1ccc(S(=O)(=O)N2CCN(Cc3noc(CCC(=O)N4CCCCC4)n3)CC2)cc1 | -1.9%
CCN(CC)c1ccc(-c2nc(-c3ccccn3)no2)cc1[N+](=O)[O-] | -5.1%
CN1CCN(C(=O)C(=O)Nc2c3c(nn2-c2cccc(Cl)c2)CSC3)CC1 | -0.4%
CCOc1ccc(NC(=O)CSc2nc(C)c(C(=O)Nc3ccccc3)c(-c3ccc(Cl)cc3)c2C#N)cc1 | -10%
CCOc1ccc(N(CC)S(=O)(=O)N2CCCC(C(=O)NCCc3ccccc3OC)C2)cc1 (stereo unspecified) | -28%
Cc1ccc(NC(=O)/C(C#N)=C/c2cc(C)n(-c3ccc(F)cc3)c2C)cc1C | -0.6%
COc1ccccc1-c1cc2nc(C)c(CCC(=O)NCc3cccc(Cl)c3)c(C)n2n1 | 3.9%
Cc1ccc(Sc2c(C)nn(C(C)(C)C)c2OC(=O)CC(C)C)cc1 | -2.4%
Cc1nn2c(=O)cc(COC(=O)c3ccc(NC(=O)COc4ccccc4F)cc3)nc2s1 | 4.6%
Cc1nc(-c2ccc(S(=O)(=O)Nc3ccc(C#N)cc3)cc2)co1 | -3.3%
COc1ccccc1NC(=O)C1=C(C)Nc2nc(SCC(=O)c3ccc(C)cc3)nn2C1c1ccc(F)cc1 (stereo unspecified) | 2.6%
Cc1ccc(NCc2cccn2-c2nnc(N3CCC(C(=O)NCc4ccc(OC(C)C)cc4)CC3)s2)cc1 | -5.6%
COc1ccc(N2CC(NC(=O)C3CCCCC3)CC2=O)cc1OC (stereo unspecified) | 0.9%
COCCNC(=O)CSc1c2c(nc3cc(Cl)ccc13)CCCC2 | -2.5%
COc1cccc(/C=C(\C#N)c2nc3ccccc3c(=O)[nH]2)c1OC | 0.9%
COc1cc(NC(=O)C2=CC(c3ccc(F)cc3)=NS(=O)(=O)N2C)cc(OC)c1OC | 0.5%

Next part
mol,ClpP mod
CSc1cccc(NC(=O)C2CCN(C(=O)c3cnn(-c4ccccc4)c3-n3cccc3)CC2)c1,-3.8%
COc1cc2[nH]c(=O)n(CCCC(=O)N3CCN(c4cccc(C(F)(F)F)c4)CC3)c(=O)c2cc1OC,-10%
Cn1c(SCc2cccc(F)c2)nc2c([nH]c3ccccc32)c1=O,-4.7%
COc1ccc(Cn2c(C(=O)O)c(CNCc3cccs3)c3ccc(C)cc32)cc1,-8.9%
NCCc1nc2cccnc2n1-c1ccccc1,-1.5%
Cc1ccc2c(c1)c1c(c(=O)n(-c3cccc(Cl)c3)c(=O)n1CC(=O)NCC1CCCO1)n2C (stereo unspecified),4.0%
COc1ccccc1CNC(=O)CCc1c(C)c2cc3c(C)coc3cc2oc1=O,-11%
COc1ccc(OCC(=O)Nc2ccc(-c3nc4cc(Cl)ccc4o3)cc2)cc1,-12%
Cc1ccc2c(c1)-c1c(cnn1CC(=O)N1CCN(c3cccc(C(F)(F)F)c3)CC1)CO2,-5.8%
COc1ccc(C(=O)NCc2cn3ccc(C)cc3n2)cc1,4.1%
CC(=O)c1ccc(NC(=O)Cn2nc(C(F)(F)F)c3c2CCC3)cc1,0.5%
COC(=O)c1cc(NC(=O)Cn2ncc3c([nH]c4ccccc43)c2=O)cc(C(=O)OC)c1,-7.1%
O=C(CSc1nc2ccsc2c(=O)n1-c1ccc(Br)cc1)NCc1ccc(Cl)cc1,-26%
COC(=O)c1ccccc1NC(=O)c1cc(CN2CCCC2)on1,-0.6%
CCC(Cc1ccccc1)NC(=O)CCS(=O)(=O)c1cc2c(cc1Cl)NC(=O)CO2 (stereo unspecified),0.8%
Cc1ccc(CNC(=O)Cn2c3ncccc3c(=O)n2-c2ccc(C)cc2)cc1,?
COc1ccc(-c2noc(CSc3nnc(-c4ccncc4)n3-c3ccccc3)n2)cc1,1.6%
CN1C(=O)c2ccccc2Sc2ccc(NC(=O)N3CCN(c4ccccc4)CC3)cc21,-4.1%
CC(C)(C)C1CCc2oc3ccc(NS(=O)(=O)c4cc(Cl)ccc4Cl)cc3c2C1 (stereo unspecified),-1.3%
CC(=O)Nc1ccc(Nc2c(CCC(C)C)c(C)c(C#N)c3nc4ccccc4n23)cc1,-4.4%
Cc1ccc(CNC(=O)c2ccc(CS(=O)(=O)Cc3ccc(F)cc3)o2)cc1,0.1%
COc1ccc(S(=O)(=O)NCCc2sc(-c3cccnc3)nc2C)cc1OC,4.3%
Cc1ccc(CNC(=O)COCc2cc(-c3cccs3)on2)cc1,0.8%
COc1ccc(CCn2c3c(c(=O)[nH]c2=O)C(NC(=O)c2ccccc2)(C(F)(F)F)C(=O)N3)cc1OC (stereo unspecified),0.2%
Cc1cc(=O)[nH]c2cc(N)ccc12,3.4%
COc1ccccc1NC(=O)CCN1CCCCC1,0.9%
CCOC(=O)C1CCN(C(=O)c2cc3ccc4cccnc4c3[nH]2)CC1,-0.8%
Nc1nonc1C(=O)NCCNCc1cccc(Cl)c1Cl,2.1%
COC(=O)c1cc(C)nc2c1c(=O)nc(SCc1cccc(C)c1)n2C1CC1,-0.1%
Cc1ccccc1OCC(=O)Nc1nnc(S(=O)(=O)N(C)c2ccccc2)s1,-1.3%

For reference, 4 of the compounds above.
mol,ClpP mod
CCOC(=O)C1CCN(C(=O)c2cc3ccc4cccnc4c3[nH]2)CC1,-0.8%
Nc1nonc1C(=O)NCCNCc1cccc(Cl)c1Cl,2.1%
COC(=O)c1cc(C)nc2c1c(=O)nc(SCc1cccc(C)c1)n2C1CC1,-0.1%
Cc1ccccc1OCC(=O)Nc1nnc(S(=O)(=O)N(C)c2ccccc2)s1,-1.3%

New compounds follow:
mol,ClpP mod
Cc1cccc(CC(=O)NC2CC(=O)N(c3ccc4c(c3)OCCO4)C2)c1 (stereo unspecified),1.5%
CN(c1ccccc1)c1nc(C#N)nc(N2CCOCC2)n1,2.1%
O=C(Nc1cccc(Cl)c1)N1Cc2ccccc2Oc2ncccc21,-16%
CCOc1ccc(NC(=O)CN2CCN(CC(=O)Nc3ccccc3OCC)CC2)cc1,-4.1%
COc1ccc(OC)c(S(=O)(=O)NCCc2sc(-c3cccnc3)nc2C)c1,?
CCc1ccc(NC(=O)Cn2c(=O)n(-c3ccccc3)c(=O)c3ccc(C(=O)NCc4ccc5c(c4)OCO5)cc32)cc1,3.8%
COc1cc2c(cc1OC)C(COc1ccc3c(C)cc(=O)oc3c1)N(C(=O)c1ccc(C)cc1)CC2 (stereo unspecified),4.4%
Cc1nc2c(-c3ccccc3)c(C)nn2c(C)c1CCC(=O)N1CCN(c2ccccc2)CC1,-1.0%
O=C(NCC(c1cccnc1)N1CCc2ccccc21)c1ccc(Cl)cc1 (stereo unspecified),0.2%
CC(=O)c1cccc(NC(=O)c2ccc3nc(C(C)C)oc3c2)c1,-1.6%
N#C/C(=C\c1ccc(Cl)cc1)C(=O)NCC1CCCO1 (stereo unspecified),-3.6%
CN1CCc2c(sc3c2C(=O)NC(c2ccc(OC(=O)c4ccc(C(C)(C)C)cc4)cc2)N3)C1 (stereo unspecified),3.8%
Cc1ccc(Cl)cc1N1CCN(C(=O)c2cn(C)c3ccc(S(=O)(=O)N4CCC(C)CC4)cc3c2=O)CC1,0.3%
COc1ccc(NCc2cc3ccc(OC)cc3n(CC(=O)Nc3cc(Cl)ccc3C)c2=O)cc1,-1.1%
COc1cccc(C(=O)Nc2c(C(=O)c3ccc(F)cc3)oc3ccccc23)c1,-9.4%
Cc1cccc(-c2noc(-c3cc(-c4ccc(F)cc4)n[nH]3)n2)c1,-1.1%
CCOC(=O)c1sc(NC(=O)c2cc3nc(-c4ccccc4)cc(C(F)(F)F)n3n2)c(C(=O)OCC)c1C,-0.2%
CCc1ccc(-n2nc(C)c3c(C(=O)N4CCN(c5cccc(Cl)c5)CC4)cc(C)nc32)cc1,-14%
CCOc1ccc(CN2CCc3nc(N4CCN(c5ncccn5)CC4)ncc3C2)cc1OC,-1.5%
CCc1ccc(S(=O)(=O)c2cn(C)c3ccc(C)cc3c2=O)cc1,-2.5%
CCOc1ccc(OCC(=O)NCCS(=O)(=O)N2CCN(c3ccc(OC)cc3)CC2)cc1,-12%
CC(=O)N1CCC2(CC1)OC(=O)C(C)=C2C(=O)NCc1ccc(Cl)cc1,-2.3%
O=C(CSc1nc2c([nH]c3ccccc32)c(=O)n1-c1cccc(C(F)(F)F)c1)N1CCc2ccccc21,4.3%
CCC(=O)N1c2ccccc2C(C)(c2ccccc2)CC1(C)C (stereo unspecified),-6.8%
COc1cc(Cl)c(C)cc1NC(=O)c1cnc2c(-c3cccc(C)c3)c(C)nn2c1C,-0.6%
CC(C)CCNC(=O)c1ccc2c(c1)N(Cc1cccc(Cl)c1)C(=O)c1ccccc1S2,0.6%
COCCn1c(C)cc(O)c(C(c2ccccc2OC)N2CCN(c3ccccc3)CC2)c1=O (stereo unspecified),-1.1%
Cc1ccc(C)c(NC(=O)Cn2cnc3nc4c(cc3c2=O)CCCC4)c1,-3.6%
CCOC(=O)c1c(NC(=O)COc2cccc(C(F)(F)F)c2)sc2c1CCCCC2,-1.7%
CN(C)c1cc(N2CCOCC2)nc(C#N)n1,-1.2%
COc1cc(OC)cc(-c2nc3nc(C)c(CCC(=O)Nc4ccc(C)cc4C)c(C)n3n2)c1,-1.4%
CSc1ncc(C(=O)N2CCN(c3cccc(C(F)(F)F)c3)CC2)c(C)n1,-0.7%
COc1cccc(CNC(=O)c2c(C)oc3nc(C)nc(N4CCOCC4)c23)c1,-3.5%

The list is partial. The share of hits here may be higher or lower than overall.
